Compound activity from PubChem.
Autofluor counter: flagged as autofluorescent in microsphere protease counterscreen; compound autofluorescence counterscreen, microsphere flow cytometry; stronger effect = higher value; fluorescence intensity (test concentration not listed); hit rate 3.1% among 360,000;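 active = at least 3 SD above the mean of all compounds, about 16000 in these data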;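 also: 100 nL of 1 mM stock went into each well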
Active calls of the source: *.

SMILES	Autofluor counter
Cc1cccc(C)c1-n1nnnc1C1(C)CCC(=O)N1C1CCN(Cc2ccccc2)CC1 (centres undefined)	5880
COc1cccc(C(O)c2nc(-c3ccccc3OC)cs2)c1 (centres undefined)	3580
CC(=O)Nc1ccc(CN(C)c2c(C)nc3ccc(C(=O)NCCCN4CCCC4=O)cn23)cc1	3921
COc1ccc(CCNC(=O)CNC(=O)N2CC(=O)Nc3ccccc32)cc1	3440
COc1cc(C)ccc1S(=O)(=O)NC(=O)C1(C)CCN1C(=O)C1(c2ccc(Cl)cc2)CCC1 (centres undefined)	3584
COc1ccc2c(c1)C(C)(Cc1ccc(C(=O)c3ccccc3)cc1)C(=O)N2 (centres undefined)	2846
COCOCCn1cc(CN2CCS(=O)(=O)N(Cc3ccc(-c4ccc(Cl)cc4)cc3)C(C(C)C)C2=O)nn1 (centres undefined)	3723
COc1cccc(CN(C)C[C@@H]2OCc3ccccc3-c3c(n(C)c4ccccc34)C(=O)N([C@@H](C)CO)C[C@H]2C)c1	2972
C[C@H]1CN([C@@H](C)CO)C(=O)CCCn2nncc2CO[C@@H]1CN(C)S(=O)(=O)c1ccc2ccccc2c1	3683
O=C(Nc1cccc(OC(F)(F)F)c1)[C@@H]1O[C@H](CO)[C@H](O)[C@H](O)[C@H]1O	3347
CCOc1ccc(Cl)cc1-c1cc(C(=O)NC(C)C)[nH]n1	3106
CCN(CC)C(=O)C1=C(C)N(Cc2ccc(OC)cc2)C(=O)C(CC(=O)NC2CCCCC2)C1 (centres undefined)	3699
COC(=O)c1ccc2nc(-c3cccc(Br)c3)c(Cc3ccccc3OC)n2c1	7321
COc1ccc(Cn2cc(CN3CCc4onc(-c5ccccc5OC)c4C3=O)nn2)cc1	6188
CCOC(=O)C1(C)CCCN1C(=O)c1ccccc1F (centres undefined)	2829
O=C(c1ccccc1)N(C(=O)c1ccccc1)c1ccccc1	3725
COc1ccc(-c2nc3cc(C)c(Br)c(C)n3c2CC(C)(C)C)cc1OC	5845
COCCNC(=O)C1(C)CCN(Cc2ccccc2C#N)C1 (centres undefined)	3599
COc1ccc(-c2nc3c4ccccc4ccn3c2Cc2ccsc2)cc1OC	6366
COc1cc(-c2coc3c(C(=O)NCc4ccncc4)cccc23)ccc1O	3744

A few values from the list.
For Autofluor counter, COC(=O)c1ccc2nc(-c3cccc(Br)c3)c(Cc3ccccc3OC)n2c1 has 7321
For Autofluor counter, COc1ccc(-c2nc3cc(C)c(Br)c(C)n3c2CC(C)(C)C)cc1OC has 5845
For Autofluor counter, COc1ccc(-c2nc3c4ccccc4ccn3c2Cc2ccsc2)cc1OC has 6366
For Autofluor counter, COc1cc(-c2coc3c(C(=O)NCc4ccncc4)cccc23)ccc1O has 3744

Other records
SMILES	Autofluor counter
COc1ccc(Cl)cc1C(=O)NC1CC(C)(C)NC(C)(C)C1	3630
CCCC(=O)N1CCOCC1c1cc(C(=O)NCc2ccccc2)no1 (centres undefined)	3934
CCOC(=O)C1(C)CCCN1C(=O)c1ccc(Cl)nc1 (centres undefined)	3811
COc1ccc(/C=C/C(=O)OCC(=O)Nc2nnc(-c3ccccc3)o2)c(OC)c1	3529
COC(=O)c1ccc2nc(-c3ccco3)c(Cc3ccccc3C(F)(F)F)n2c1	4487
C#CCn1cc(CNC[C@H]2O[C@@H](n3cnc4c(=O)[nH]c(N)nc43)[C@H](O)[C@@H]2O)c2ccccc21	5871
O=c1c2cc(C(F)(F)F)ccc2sn1-c1ccccc1	3507
Clc1cccc(CNc2ccn3nc(-c4cccs4)cc3n2)c1	3220
CSc1ccc(CN2CCC2(C)C(=O)NCc2cccs2)cc1 (centres undefined)	4018
Cc1nc2c(OCC(=O)c3ccc(F)cc3)cccn2c1N(C)Cc1cccs1	3714
O=C(Nc1ccc2nc(N3CCOCC3)sc2c1)c1cc2ccccc2o1	3348
Nc1ccccc1CCc1ccccc1N	2907
CC(=O)NC(CCc1ccc(Cl)c(Cl)c1)c1cccc(O)c(=O)c1 (centres undefined)	4041
CCOC(=O)[C@]12Cc3cc(Cl)ccc3[C@H]1N(C(C)C)C(=O)c1ccccc12	4432
Cn1cc(-c2csc(C(O)c3ccc(F)c(F)c3)n2)cn1 (centres undefined)	3460
Clc1ccc(Br)c(-c2nc3ccccc3[nH]2)c1	2934
CCc1nc2ccc(C(=O)NCCCn3ccnc3)cn2c1N(C)CCC(C)C	3891
CC1(C)CC(=Cc2ccccc2[N+](=O)[O-])C(=O)c2ccccc21	3622
CCOC(=O)CCCCCC(=O)Nc1ccc2c(c1)C(=O)N([C@@H](C)CO)C[C@H](C)[C@H](CN(C)S(=O)(=O)c1ccc(OC)cc1)OCCCC[C@H](C)O2	3028
O=C(CCCN1C(=O)/C(=C\c2cccs2)SC1=S)Nc1ccccc1O	3893
O=C(Nc1ccc(F)c(Cl)c1)c1cc(C2CCCN(S(=O)(=O)c3cccs3)C2)on1 (centres undefined)	4148
CN(C)CCNC(=O)c1ccc(-c2cnn(C)c2)c2ccoc12	4148
COCC#Cc1cnc2c(c1)C(=O)N([C@H](C)CO)C[C@H](C)[C@@H](CN(C)S(=O)(=O)c1ccccc1)O2	4210
COc1cccc(-c2cnc(C(O)c3ccccc3OC)[nH]2)c1 (centres undefined)	4138
COc1ccc(-c2[nH][nH]c(=O)c2NC(=O)c2ccc(C)cc2)cc1	5420
CN1CC(O)(C(O)C(O)C(O)CO)SC1=S (centres undefined)	2907
Cc1cc(C)c(S(=O)(=O)NN=C2c3ccccc3[C@H]3Cc4csc[n+]4[C@@H]23)c(C)c1	5043
CC1(C(=O)Nc2cccc(NS(C)(=O)=O)c2)CCN1Cc1ccccc1OC(F)F (centres undefined)	3664
O=C(c1ccccc1)N(CCCn1ccnc1)C(c1ccccc1)c1nc2ccccc2[nH]1 (centres undefined)	6416
COc1cc(C(=O)N(Cc2ccccc2)c2cccc(C)c2)ccc1OCC(=O)N1CCOCC1	3707
C[C@H](O)[C@@H]1C(=O)N2CCc3c([nH]c4ccccc34)[C@@H]2C[C@@H]1N(C)Cc1ccc2c(c1)OCO2	3463
CCOC(=O)C1=C(COC(=O)C2CC(=O)N(c3ccccc3CC)C2)NC(=O)NC1C (centres undefined)	3450
COC(=O)CCCC[C@@H]1O[C@H](CCc2ccccc2)CC2=C1C(=O)OC(C)(C)O2	5583
OC[C@@H]1CN(Cc2ccc(F)cc2)C[C@H](n2cnc3c(NCc4ccco4)ncnc32)O1	3834
CC(C)CNC(=O)C1(C)CCCN1C(=O)C(C)(C)Oc1ccc(Cl)cc1 (centres undefined)	3554
Cc1ncoc1C(=O)NC1CCCc2c1cnn2-c1cc(F)cc(F)c1 (centres undefined)	3562
Clc1ccc2nc(-c3ccccc3)c(CC3CCCCC3)n2c1	6189
CC(C)CNC(=O)C1(C)CCCN1C(=O)c1csnn1 (centres undefined)	3823
COc1ncnc2c1ncn2CCCN(C)Cc1ccco1	2858
CC(C)(C)n1nnnc1C(C1CC1)N1CCN(C/C=C/c2ccccc2)CC1 (centres undefined)	5826

Four entries from above, field by field.
CC(C)CNC(=O)C1(C)CCCN1C(=O)C(C)(C)Oc1ccc(Cl)cc1 (centres undefined)
  Autofluor counter: 3554
Cc1ncoc1C(=O)NC1CCCc2c1cnn2-c1cc(F)cc(F)c1 (centres undefined)
  Autofluor counter: 3562
Clc1ccc2nc(-c3ccccc3)c(CC3CCCCC3)n2c1
  Autofluor counter: 6189
CC(C)CNC(=O)C1(C)CCCN1C(=O)c1csnn1 (centres undefined)
  Autofluor counter: 3823

(more compounds)
SMILES	Autofluor counter
CCOC(=O)C1=CCC(c2cccc3ccccc23)N(S(=O)(=O)c2ccc(C)cc2)C1 (centres undefined)	6064
COc1ccccc1C#Cc1cnc2c(c1)C(=O)N([C@H](C)CO)C[C@H](C)[C@@H](CN(C)S(=O)(=O)c1cn(C)cn1)O2	2984
COC(=O)[C@]12CCCCC=C1N(CCC1=CCCCC1)C(=O)[C@H](CC(=O)NCC13CC4CC(CC(C4)C1)C3)C2	5694
CCCCn1c(N)c(N(Cc2ccccc2OC)C(=O)C(C)Oc2cccc(Cl)c2)c(=O)[nH]c1=O (centres undefined)	3993
CC1=C(C(=O)N2CCOCC2)CC(CC(=O)NC2CC2)C(=O)N1Cc1ccc(C(C)(C)C)cc1 (centres undefined)	2783
Cc1cc(=O)oc2c3c(cc(OCC(=O)NCC(O)c4ccccc4)c12)OC(C)(C)CC3 (centres undefined)	5105
OC[C@@H]1CN(Cc2ccncc2)C[C@H](n2cnc3c(N4CCCC4)ncnc32)O1	4146
COc1ccc(CCNC2(C#N)CCCCC2)cc1OC	3805
Cn1c(OCC2CCCO2)nc2cc(-c3ccccc3)sc2c1=O (centres undefined)	3920
COC(=O)c1ccc(CC2(C)C(=O)Nc3ccc(-c4cccc(C(F)(F)F)c4)cc32)o1 (centres undefined)	2825
C[C@@H]1CN([C@@H](C)CO)C(=O)CCCn2cc(nn2)CO[C@H]1CN(C)S(=O)(=O)c1ccccc1F	3633
Clc1cccc(-c2cc3nc(NCCOc4ccccc4)ccn3n2)c1	2864
CC1(C(=O)NCc2ccco2)Cc2c(-c3cccc(C(N)=O)c3)ccnc2O1 (centres undefined)	4076
CCOC(=O)C1=CCN(S(=O)(=O)c2cccc(Cl)c2)C1c1cccc(F)c1 (centres undefined)	4034
C[C@H](NC(=O)[C@@H]1CCCN1C(=O)[C@@H]1CCCN1C(=O)c1ccc(Cl)cc1)c1ccccc1	5852
Cc1ccc(S(=O)(=O)N2C[C@H]3C(=O)C[C@@H](c4cccc(Cl)c4)N(S(=O)(=O)c4ccc(C)cc4)[C@H]3C[C@H]2c2ccc(Cl)cc2)cc1	3717
CC1CCN(C(=O)c2ncn3c2c(=O)[nH]c2ccccc23)CC1	3320
C[C@H](CO)N1C[C@H](C)[C@@H](CN(C)C(=O)Nc2cc(F)ccc2F)Oc2ncc(-c3cccc(F)c3)cc2C1=O	2876
NC(=O)CCC(NC(=O)OCc1ccccc1)C(=O)OCC(=O)c1ccccc1 (centres undefined)	3770
COc1ccc(-c2ccc3c(c2)c(Sc2ccccc2)c(-c2ccccc2)n3C)cn1	5373
Cc1ccc(C)c(CC(=O)N2CCCC(c3cc(C(=O)Nc4ccc5c(c4)OCO5)no3)C2)c1 (centres undefined)	3729
C=CCSc1nc2c(N)ncnc2n1C1OC(CO)C(O)C1O (centres undefined)	3402
O=C(Cn1cc(C(F)(F)F)ccc1=O)Nc1ccc2c(c1)OCO2	3917
NC1(CO)COC(c2ccccc2)OC1 (centres undefined)	3494
NC(c1ccccc1)c1csc(NC(=O)Nc2cccc(Cl)c2)n1 (centres undefined)	3514
CC1(C(=O)Nc2ccc3c(c2)OCCO3)CCC(=O)N1CC(F)(F)F (centres undefined)	5732
OC(c1ccccc1)c1nc(-c2cc3ccccc3o2)cs1 (centres undefined)	3546
C[C@@H]1CN([C@@H](C)CO)S(=O)(=O)c2ccc(C#CC3CCCCC3)cc2O[C@@H]1CN(C)Cc1cccnc1	3577
COc1cccc(-c2cccc(-c3nc(C(=O)Nc4ccc(-c5ccccc5)cc4)cc4c3[C@H](CCO)N(S(=O)C(C)(C)C)C4)c2)c1 (some centres undefined)	4303
COc1cccc(CN2CC(C(=O)NCCc3nccs3)CCC2=O)c1 (centres undefined)	2986
COC(=O)c1cn(Cc2ccc(F)cc2)c2ccccc12	3617
COc1ccccc1-c1ccc2c(c1)C(C)(Cc1ccc(Cl)cc1)C(=O)N2 (centres undefined)	3990
C[C@H](CO)N1C[C@H](C)[C@@H](CN(C)CC2CCOCC2)Oc2cc(C#Cc3ccccc3F)ccc2S1(=O)=O	3062
COc1cccc(CN(CCC(=O)O)Cc2cccc(OC)c2)c1	2896
OC[C@@H]1CN(CCNc2ccccc2)C[C@H](n2cnc3c(NCc4ccncc4)ncnc32)O1	2937
CC(C)c1ccc(CN2CCC(C)(Oc3ccc(Cl)cc3)C2)cc1 (centres undefined)	3283
CCOC(=O)C1CCCN(C(=O)c2cc(C#N)cs2)CC1 (centres undefined)	3120
COc1ccc([C@@H]2C[C@H]3[C@@H](CN2S(=O)(=O)c2ccccc2)C(=O)C[C@@H](c2cccc4ccccc24)N3S(=O)(=O)c2ccc(C)cc2)cc1	3040
COc1ncccc1-c1cnc2cccnn12	3444
OC(c1cccc(Cl)c1)c1nc(-c2ccc(F)c(Cl)c2)cs1 (centres undefined)	3871

Reformatted as comma-separated lines: 6 of the compounds above
SMILES,Autofluor counter
OC[C@@H]1CN(CCNc2ccccc2)C[C@H](n2cnc3c(NCc4ccncc4)ncnc32)O1,2937
CC(C)c1ccc(CN2CCC(C)(Oc3ccc(Cl)cc3)C2)cc1 (centres undefined),3283
CCOC(=O)C1CCCN(C(=O)c2cc(C#N)cs2)CC1 (centres undefined),3120
COc1ccc([C@@H]2C[C@H]3[C@@H](CN2S(=O)(=O)c2ccccc2)C(=O)C[C@@H](c2cccc4ccccc24)N3S(=O)(=O)c2ccc(C)cc2)cc1,3040
COc1ncccc1-c1cnc2cccnn12,3444
OC(c1cccc(Cl)c1)c1nc(-c2ccc(F)c(Cl)c2)cs1 (centres undefined),3871

The list goes on.
SMILES	Autofluor counter
COC(=O)c1cc(=O)nc(NNC(C)=O)s1	4305
COCCCN1C(=O)C(CC(=O)NCc2cccs2)CC(C(=O)N2CCOCC2)=C1C (centres undefined)	3752
CCCCCCCCN1C(=O)[C@H](CC(=O)NCC2CCCCC2)C[C@@]2(C(=O)OCC)CCCC=C12	6431
O=C(NCc1ccccc1)c1cc(C2COCCN2S(=O)(=O)c2ccccc2)on1 (centres undefined)	3648
COc1ccccc1CCC(=O)Nc1ccc2c(c1)c(=O)n(C)n2Cc1cccc(C(F)(F)F)c1	2972
CC(C)(C(=O)N1CCC1(C)C(=O)Nc1ccccc1Br)c1ccccc1 (centres undefined)	3776
C=CCn1nc(C(=O)N2CCOCC2)cc1-c1sc(NC(=O)c2ccccc2)nc1C	3412
Cc1nc(Cc2nnc(SCC(=O)N3c4ccccc4NC(=O)C3(C)C)o2)cs1	2820
C[C@@H]1CN([C@H](C)CO)C(=O)CCCn2nncc2CO[C@@H]1CN(C)S(=O)(=O)c1ccc(Cl)cc1	3452
CC(C)NC(=O)C1(C)CCN1Cc1ccc(C(F)(F)F)cc1 (centres undefined)	4153
Cc1ccccc1-c1ccc2c(c1)CNCc1cnnn1-2	5818
COc1ccc(C(c2nnnn2-c2ccc3c(c2)OCCO3)N2CCN(C/C=C/c3ccccc3)CC2)cc1 (centres undefined)	4666

Only part of the results is shown; count on the stated rates, not on these rows.
